Assay outcomes (PubChem BioAssay)
Ecoli rRNA inh: inhibits bacterial ribosomal RNA function over humanized ribosomes; 1.6% of 350,000 active; E. coli WT GFP vs humanized-ribosome RFP mutants, fluorescence, 24 h; hits give low values; DMSO median 0, no signal -100; GFP signal change (wild-type ribosome), % (concentration not given with the values);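 active = significant combined selectivity score with lowered wild-type GFP, culture density cut under 30%, mutant RFP and density less affected; inactive = any of these conditions unmet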; note: one replicate is shown; some compounds called inactive have numbers as strong as hits
AF4-AF9 inh: MLL-AF4/AF9 protein interaction inhibition | AlphaScreen, biotin-AF4 peptide binding to FLAG-AF9 | inhibition, % at 10 µM | 0.47% of 350,000 active;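 active = every replicate reaching a set inhibition limit, whatever the replicate mean, cut at about 25% in these data; inconclusive = mean inhibition reaches that limit but some replicates miss it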;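 note: 0% = plate neutral control median and 100% = total signal loss; the record names both 10 and 1 µM as test concentration; the first replicate is given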
Target sequence (P42568 whole entry, looked up): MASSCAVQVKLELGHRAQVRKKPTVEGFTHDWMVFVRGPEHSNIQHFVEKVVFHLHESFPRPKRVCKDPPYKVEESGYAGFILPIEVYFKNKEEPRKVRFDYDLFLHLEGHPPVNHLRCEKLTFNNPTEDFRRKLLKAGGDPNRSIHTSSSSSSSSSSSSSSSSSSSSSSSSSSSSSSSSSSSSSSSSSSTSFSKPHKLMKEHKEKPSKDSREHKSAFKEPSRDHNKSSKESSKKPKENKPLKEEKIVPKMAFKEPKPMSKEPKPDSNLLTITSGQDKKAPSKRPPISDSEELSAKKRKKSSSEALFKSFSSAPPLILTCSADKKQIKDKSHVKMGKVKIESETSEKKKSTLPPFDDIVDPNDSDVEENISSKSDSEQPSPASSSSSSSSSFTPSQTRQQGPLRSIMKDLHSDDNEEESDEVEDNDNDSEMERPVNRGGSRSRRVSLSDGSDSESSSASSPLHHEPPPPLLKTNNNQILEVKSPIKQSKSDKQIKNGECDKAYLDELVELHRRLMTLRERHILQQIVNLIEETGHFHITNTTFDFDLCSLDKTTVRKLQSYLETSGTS
FGF22 binding: binders of recombinant human FGF22 by thermal shift. Q9HCT0. SYPRO orange fluorescence; percent of sucrose octasulfate shift, DMSO zero. calls only at 9.99 µM. 1.5% of 340,000 active. AID 651658;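 active = melting point raised past a set limit in the mean and every replicate; inconclusive = no clear call; three in four hits are not shown here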
Target sequence (Q9HCT0 whole entry, looked up): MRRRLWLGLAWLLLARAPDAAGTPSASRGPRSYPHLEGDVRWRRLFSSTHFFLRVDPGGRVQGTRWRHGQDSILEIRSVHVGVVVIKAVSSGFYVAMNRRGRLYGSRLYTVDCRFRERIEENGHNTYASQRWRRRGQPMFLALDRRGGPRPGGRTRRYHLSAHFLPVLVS
ALR inh: blocks human ALR sulfhydryl oxidase activity; purified ALR, DTT oxidation, H2O2 HRP-luminol luminescence; inhibition, % (no concentration beside the values); 3.8% of 290,000 active; AID 485317;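 active = mean and each replicate at 75% or more; inconclusive = only one of the two met; inactive = neither met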;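 note: stock transfer was 7.5 nL into about 7.5 µL; 0% = neutral wells and 100% = wells with inactivated enzyme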
Target sequence (P55789 whole entry, looked up): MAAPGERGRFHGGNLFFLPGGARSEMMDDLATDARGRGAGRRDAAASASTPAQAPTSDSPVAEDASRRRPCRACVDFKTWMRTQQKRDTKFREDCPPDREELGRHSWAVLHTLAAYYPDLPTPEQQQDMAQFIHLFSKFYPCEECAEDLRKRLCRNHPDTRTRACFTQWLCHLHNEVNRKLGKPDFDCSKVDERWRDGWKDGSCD
Vif A3G: HIV-1 Vif–A3G interaction blockers – biochemical, TR-FRET, GST-Vif 1-94, biotin-A3G peptide, dose response retest, primary screen (AID 1117319). 0.57% of 260,000 active. one-dose inhibition, %; IC50 in µM for titrated hits. TR-FRET GST-Vif / biotin-A3G peptide binding; higher % means a stronger effect; test concentration not given here; strong numbers were not always called active;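 active = above the screen mean plus three standard deviations and confirmed in dose response; inconclusive = results disagree or hit not tested in dose response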;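 note: Vif residues 1-94 fused to GST binding biotinylated APOBEC3G peptide 110-148; 0% = full assay without inhibitor and 100% = GST in place of GST-Vif; retest series ran down from 100 µM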
HNF4A DNA FP: change in binding of human HNF4 alpha to DNA; P41235; HNF4a-FITC DNA binding, fluorescence polarization, 1 h; activity change, % at 10 µM; 0.3% of 360,000 active; AID 1224865; in the data active = activity change above about 30%, passing the limit was not always enough;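 note: controls were the assay level and a saturating level of protein; the project sought stronger binding though the title names inhibitors; some compounds called inactive have numbers as strong as hits; positive values seem to mean higher polarization but the record does not say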
Ecoli growth: blocks Escherichia coli growth; OD600, 23 h; hits give low values; OD600 absorbance (test concentration not listed); 0.21% of 330,000 active;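 active = OD600 absorbance below the run mean of sample wells minus 3.6 SD, in any replicate, cut at about 0.56 in these data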;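 note: stock transfer was 300 nL into about 60 µL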
Ecoli rRNA inh OD600: recorded beside Ecoli rRNA inh, whose call it bears; OD600 change, %; measured here: OD600 growth;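 optical density of the mix in the first replicate; 0 = DMSO median and -100 = no signal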
Ecoli rRNA inh RFP: further read-out of Ecoli rRNA inh, marked with its call; RFP signal change, %; measured here: RFP humanized mutant strains;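 first replicate; 0 = DMSO median and -100 = no signal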
An asterisk follows results filed as active; i = inactive; ? = inconclusive; / = not tested or not shown; + = active, no number; & = joins results of further samples. An excerpt; count on the stated rates, not on these rows.

SMILES	Ecoli rRNA inh	Ecoli rRNA inh OD600	Ecoli rRNA inh RFP	AF4-AF9 inh	FGF22 binding	ALR inh	Vif A3G	HNF4A DNA FP	Ecoli growth
CCOc1ccc2ccccc2c1C(=O)N1CCN(c2ccccc2)CC1	-38	-62	-9.8	-86	i	24	-1%	1.5	0.68
CCNc1nc(NC(C)CC)nc(ON=C(C)C)n1 (centres undefined)	7	-2	-1.3	-0.9	i	0	/	1.6	0.62
CCOC(=O)C1=C(C)N(C)C(=S)NC1c1ccc(Cl)cc1Cl (centres undefined)	-25	-20	-13	-43	i	2	?	2.1	0.65
Cc1ccc2c(c1)c1c(n2CC(O)CN2CCC(C)CC2)CCCC1 (centres undefined)	1	-27	9.7	4.2	i	93*	32%	2.9	0.67
O=C(NC1CCN(S(=O)(=O)c2ccccc2)CC1)C1CCCCC1	7	5	1.0	1.9	i	-6	-12%	2.9	0.67
Cc1csc(NC(=O)CSCC(=O)O)c1-c1nc2ccccc2s1	-51*	-20*	-14*	-7.0	i	53	-11%	-1.4	0.69
O=C(O)CCC(=O)Nc1ccc(Br)c(Cl)c1	/	/	/	/	/	-1	0%	10.0	0.71
CCc1ccccc1NC1=CC(=O)CC(C)(C)C1	10	4	-4.0	-2.1	i	2	8%	1.5	0.68
Cc1cccc(C)c1NC(=O)c1cc(S(=O)(=O)N2CCc3ccccc32)cn1C	4	15	-3.4	-0.5	i	-5	/	-1.1	0.72
O=C(Nc1cccc(C(F)(F)F)c1)c1cc(-c2cccs2)on1	/	/	/	/	/	-4	1%	-2.7	0.73
C=C(C)CNC(=O)CCc1nnc(C2(c3ccc(Cl)cc3)CCC2)o1	3	-2	0.5	-1.5	i	3	/	-4.3	0.68
CO[C@H]1CN(C)C(=O)c2cc(NC(C)=O)ccc2OC[C@@H](C)N(Cc2ccc(F)cc2)C[C@@H]1C	-5	-17	-0.3	0.8	i	/	/	/	/
Cc1occc1-c1n[nH]c(=S)n1CC(C)C	/	/	/	/	/	31	-4%	0.6	0.71
C/C=C/c1cnc2c(c1)C(=O)N([C@H](C)CO)C[C@@H](C)[C@@H](CN(C)S(=O)(=O)c1ccccc1F)O2	1	1	-2.8	-22	i	/	/	/	/
CCCNC(=O)[C@@H]1[C@@H](CO)[C@@H]2Cn3c(cccc3=O)[C@H]1N2C(=O)C1CCC1	3	0	-3.5	-0.1	i	/	/	/	/
COc1cccc(NC(=O)CN(C)CC(=O)NCc2ccco2)c1	6	12	2.1	-0.1	i	/	-14%	-1.1	0.65
CCC(c1nc2ccccc2c(=O)n1-c1cccnc1)N1C(=O)c2ccccc2C1=O (centres undefined)	1	-2	-0.4	8.5	i	-2	1%	-3.0	0.71
O=C(C[C@@H]1C=C[C@H](NS(=O)(=O)c2ccc(F)cc2)[C@@H](CO)O1)NCc1ccc(Cl)c(Cl)c1	-7	-9	-0.6	-0.6	i	/	/	/	/
CC(=O)Nc1cccc(Oc2cc(C#N)c(C#N)cc2N2CCOCC2)c1	/	/	/	/	/	-10	1%	3.3	0.73
COc1ccccc1OCCCn1c(=O)oc2ccc(C)cc21	/	/	/	/	/	/	0%	0.7	0.68
C[C@@H]1CCCCO[C@@H](CN(C)S(=O)(=O)c2ccccc2)[C@H](C)CN([C@H](C)CO)C(=O)c2cc(NC(=O)c3ccccc3)ccc2O1	-3	9	-2.7	1.3	i	/	/	/	/
COc1cc(C)c2c(c1C=O)Oc1c(c(C)c(O)c3c1C(O)OC3=O)OC2=O (centres undefined)	/	/	/	-2.4	+	37	25%	-47	0.74
CC(C)S(=O)(=O)N1CCN(c2ccnc3cc(Cl)ccc23)CC1	-38	-35	-7.1	1.2	i	-3	-2%	-0.1	0.67
NS(=O)(=O)c1cc(C(=O)N2CCNC(=O)C2)ccc1Cl	4	2	1.3	?	i	-6	/	2.6	0.66
C/C(=N\NC(=O)c1cc(-c2cccnc2)nc2ccccc12)c1ccccc1O	7	3	6.4	3.7	i	-29	9%	3.5	/
Other structures:
SMILES	Ecoli rRNA inh	Ecoli rRNA inh OD600	Ecoli rRNA inh RFP	AF4-AF9 inh	FGF22 binding	ALR inh	Vif A3G	HNF4A DNA FP	Ecoli growth
CCOc1ccccc1Nc1nnc(SCc2ccc(C(=O)OC)o2)s1	/	/	/	/	/	1	26%	0.5	0.66
Cc1ccc(CN2CCN(CCCc3ccccc3)CC2CCO)cc1 (centres undefined)	7	2	-0.7	2.6	i	/	?	1.8	0.66
CCCCN(C(=O)CN1C(=O)C2CC=CCC2C1=O)c1c(N)n(CCC)c(=O)[nH]c1=O (centres undefined)	/	/	/	/	/	-3	-3%	3.5	0.73
O=C(O)C1CCN(C(=O)CCc2ccccc2)CC1	0	5	-3.3	/	i	3	-3%	6.1	0.73
O=C(C[C@H]1C[C@H]2c3cc(NC(=O)C4CCOCC4)ccc3O[C@H]2[C@H](CO)O1)NCc1ccccc1	2	6	-1.2	-1.0	i	/	/	/	/
CSc1n[nH]c2nc3c(c(=O)n12)C1(CCCCC1)Cc1ccccc1-3	0	-5	14	-7.6	i	/	-8%	0.2	0.7
CCCC(=O)N1CCC2(CC1)CN(Cc1nccs1)[C@@H](CO)c1[nH]c3cc(OC)ccc3c12	1	11	2.0	-1.1	i	/	/	/	/
CN1C(=S)SC2CS(=O)(=O)CC21 (centres undefined)	20	7	1.5	-2.0	i	-1	/	1.1	0.65
COc1ccc(S(=O)(=O)N(C)C[C@H]2OCCCC[C@@H](C)Oc3ccc(NS(=O)(=O)c4ccccc4)cc3C(=O)N([C@@H](C)CO)C[C@@H]2C)cc1	2	1	-1.2	2.3	i	/	/	/	/
O=C(NCc1ccccc1)C1=C[C@H](c2ccc(C(F)(F)F)cc2)C[C@H](OCCCCO)O1	-2	2	-0.4	-2.1&0.7	i	-34	/	4.4	/
CN1C(=O)c2cc(NC(=O)c3cnccn3)ccc2OC[C@H]2O[C@H](CC(=O)N[C@@H]3CCN(Cc4ccccc4)C3)CC[C@@H]21	1	12	-1.9	6.8	i	/	/	/	/
N=c1ccn(Cc2cccc(Cl)c2)cc1	/	/	/	/	/	-1	-4%	2.8	0.73
C[C@@H]1CN([C@H](C)CO)C(=O)Cc2cc(NC(=O)Nc3cccc4ccccc34)ccc2O[C@@H]1CN(C)C	0	-7	4.1	-0.3	i	/	/	/	/
COc1ccc(NC(=O)Nc2ccc3c(c2)C(=O)N([C@@H](C)CO)C[C@@H](C)[C@@H](CN(C)C(=O)Cc2ccccc2)OCCCC[C@@H](C)O3)cc1	0	-4	0.2	-0.3	i	/	/	/	/
CC(=NNC(=O)c1cccc(S(=O)(=O)N2CCOCC2)c1)c1ccccc1	6	9	0.3	-1.7	i	0	/	-0.5	0.72
C[C@@H]1CN([C@@H](C)CO)C(=O)Cc2cc(NC(=O)Cc3cn(C)c4ccccc34)ccc2O[C@H]1CN(C)S(=O)(=O)c1ccc(F)cc1	-4	-6	2.3	-3.3	i	/	/	/	/
O=C(NCCc1ccc(F)cc1)Nc1ccccc1Cl	3	-2	-0.5	-7.4	i	-7	/	-0.4	0.67
Cc1noc(C)c1NC(=O)N[C@H]1CC[C@@H](CC(=O)N2CCCCC2)O[C@@H]1CO	2	2	-0.8	2.2	i	/	/	/	/
C[C@@H]1CN([C@@H](C)CO)C(=O)c2cc(NC(=O)C3CCCCC3)ccc2O[C@@H](C)CCCCO[C@H]1CN(C)C(=O)Cc1ccccc1	-2	-6	2.3	-1.6	i	/	/	/	/
CN(Cc1cccnc1)C(=O)CC1C(=O)NCCN1CC(c1ccccc1)c1ccccc1 (centres undefined)	9	8	-2.4	2.0	/	-36	-4%	1.4	0.69
CO[C@@H]1CN(C)C(=O)c2cc(NS(=O)(=O)c3ccc(-c4ccccc4)cc3)ccc2OC[C@@H](C)NC[C@@H]1C	-1	-7	9.2	3.3	i	/	/	/	/
COc1ccc(CN(C)C[C@@H]2Oc3c(NC(=O)NC4CCCCC4)cccc3C(=O)N([C@@H](C)CO)C[C@@H]2C)cc1	4	3	-3.5	-2.7	i	/	/	/	/
COCC[N+]1(C)CCCCC1	16	19	0.2	-1.2	i	-14	/	-0.9	0.67
CCCNC(=O)c1ccc(Cl)cc1Cl	5	7	-2.2	3.3	i	-8	-7%	9.1	/
O=C(Nc1ccc(Cl)cc1)N[C@H]1CC[C@H](CCn2cc(-c3ccccc3F)nn2)O[C@@H]1CO	-2&-1	13&3	5.5&9.0	-1.8&-4.2	i	/	/	0.3	/
(more compounds)
SMILES	Ecoli rRNA inh	Ecoli rRNA inh OD600	Ecoli rRNA inh RFP	AF4-AF9 inh	FGF22 binding	ALR inh	Vif A3G	HNF4A DNA FP	Ecoli growth
COC(=O)c1ccccc1NC(=O)C12CCC(C)(C(=O)O1)C2(C)C (centres undefined)	/	/	/	/	/	-2	1%	-0.3	0.66
Cc1ccccc1C(=NCCCN(C)C)c1ccccc1C	6	0	-0.7	-0.9	i	-3	/	5.9	0.67
CCc1ccccc1NC(=O)c1cccc(N2C(=O)C3C4CCC(C4)C3C2=O)c1 (centres undefined)	/	/	/	/	/	5	-2%	-0.6	0.67
CC(NC(=O)c1cc(S(=O)(=O)N2CCCC2)cn1C)c1ccccc1 (centres undefined)	8	8	1.1	4.6	i	-11	/	-0.5	0.71
O=C(NCc1cccs1)c1ccc(CS(=O)(=O)c2ccc(Cl)cc2)o1	/	/	/	/	/	3	0%	-1.1	0.64
COC(=O)c1ccc(N2CCc3ccccc32)c([N+](=O)[O-])c1	-22	-46	9.3	33*	i	-22	-2%	0.1	0.66
CCC(CO)NC1=C([N+](=O)[O-])C(=O)CC(C)(C)C1 (centres undefined)	/	/	/	/	/	14	/	-0.1	0.72
Cc1nc2c(C)cccc2cc1C(=O)N/N=C/c1cccnc1	6	-6	0.4	0.8	i	-3	1%	2.9	/
COc1ccccc1NC(=O)CN(c1ccc(C)cc1)S(=O)(=O)c1c(C)n[nH]c1C	/	/	/	/	/	3	2%	6.1	0.71
COCC(=O)N(C)C[C@H]1Oc2ncc(C#Cc3ccccc3OC)cc2C(=O)N([C@@H](C)CO)C[C@H]1C	-7	-13	-4.6	-4.6	i	/	/	/	/
O=C(NC12CC3CC(CC(C3)C1)C2)N1CCN(C(=O)C2CCCO2)CC1 (centres undefined)	/	/	/	/	/	4	13%	0.4	0.7
O=C(OCC(=O)c1ccc[nH]1)c1ccc(Cl)c(Cl)c1	-1	7	-0.7	-0.5	i	-3	-2%	5.4	0.66
COc1cc(CNC2CCCC2)c(Br)cc1OC1CCCC1	-5	-26	28	0.0	i	-1	?	-0.7	0.64
Cc1nn(CCCC(=O)NCc2ccc(F)cc2)c(=O)c2nccn12	6	-1	2.3	-7.8	i	-17	/	-1.9	0.72
Cc1ccccc1OCCC(=O)OCC(=O)N1CCN(S(=O)(=O)c2ccc(Cl)cc2)CC1	-5	-5	0.2	-2.9	i	-3	/	-1.1	0.71
CN(Cc1ccccc1)C(=S)NC(=O)c1cccs1	-57	-76	-16	3.5	i	1	/	1.4	0.71

Looked up by structure from above, 4 records:
SMILES	Ecoli rRNA inh	Ecoli rRNA inh OD600	Ecoli rRNA inh RFP	AF4-AF9 inh	FGF22 binding	ALR inh	Vif A3G	HNF4A DNA FP	Ecoli growth
CN(Cc1ccccc1)C(=S)NC(=O)c1cccs1	-57	-76	-16	3.5	i	1	/	1.4	0.71
COC(=O)c1ccccc1NC(=O)C12CCC(C)(C(=O)O1)C2(C)C (centres undefined)	/	/	/	/	/	-2	1%	-0.3	0.66
CCC(CO)NC1=C([N+](=O)[O-])C(=O)CC(C)(C)C1 (centres undefined)	/	/	/	/	/	14	/	-0.1	0.72
O=C(NCc1cccs1)c1ccc(CS(=O)(=O)c2ccc(Cl)cc2)o1	/	/	/	/	/	3	0%	-1.1	0.64
